# Polio RdRp inh – inhibitors of poliovirus RNA polymerase binding and polymerization | P03300 | poliovirus polymerase elongation, fluorescence polarization; hits give low values | % elongation, % (compound at 16.7 µg/mL) | 0.66% of 150,000 active | AID 588519; in the data active = % elongation below about 90%; note: some results filed as inactive read as strong as hits
# Target sequence (P03300 1749-2209 limits assumed): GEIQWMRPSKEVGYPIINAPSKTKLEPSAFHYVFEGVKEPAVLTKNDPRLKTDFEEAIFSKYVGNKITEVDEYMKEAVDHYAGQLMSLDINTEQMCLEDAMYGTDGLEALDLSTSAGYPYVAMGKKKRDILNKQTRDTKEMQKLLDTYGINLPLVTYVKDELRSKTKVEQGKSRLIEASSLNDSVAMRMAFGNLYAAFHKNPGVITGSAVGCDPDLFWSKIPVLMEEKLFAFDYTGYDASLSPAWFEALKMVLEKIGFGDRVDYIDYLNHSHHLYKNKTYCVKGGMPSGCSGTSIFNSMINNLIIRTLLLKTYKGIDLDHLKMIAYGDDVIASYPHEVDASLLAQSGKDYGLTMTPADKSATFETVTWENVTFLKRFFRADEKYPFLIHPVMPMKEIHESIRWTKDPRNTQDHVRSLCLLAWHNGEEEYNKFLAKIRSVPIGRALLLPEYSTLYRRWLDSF
# Polio RdRp inh intensity – also measured in Polio RdRp inh; calls as there; % elongation; measured here: total intensity read-out; formula for this scale not given here;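 total fluorescence in place of polarization; lower means less elongation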
# The depositor's hits bear a star. Not all compounds are listed; count on the stated rates, not on these rows.
SMILES,Polio RdRp inh,Polio RdRp inh intensity
CCOC(=O)c1cccc(NS(=O)(=O)c2ccc(-c3coc(C)n3)cc2)c1,114,111
O=C(CSc1oc(-c2ccco2)nc1S(=O)(=O)c1ccc(Cl)cc1)c1ccccc1,105,102
Cc1cccc(N(CC(=O)NCCSc2ccc(Cl)cc2)S(=O)(=O)c2ccccc2)c1C,109,109
CC1CCN(C(=O)c2cnn(-c3cccc(Cl)c3)c2C2CCN(C(=O)OC(C)(C)C)CC2)CC1,103,103
CCc1ccccc1Nc1cc(C(=O)NCCCN(C)C2CCCCC2)c2ccccc2n1,105,104
COc1cccc(-c2noc(-c3cc4ccccc4oc3=O)n2)c1OC,118,121
CC(C)OCCCNC(=O)c1ccc(-n2c(-c3ccccc3)cc3c2CCCC3)cc1,106,109
O=C(NCc1ccc(F)cc1)C1CCN(S(=O)(=O)c2ccc3c(c2)CCCN3C(=O)C2CCC2)CC1,106,114
O=C(c1ccc2c(c1)CCCC2)N1CCN(c2nc3c(F)cccc3s2)CC1,101,101
COc1ccc(S(=O)(=O)NCc2cccn2Cc2cccc(C)c2)cc1OC,107,109
CC(=O)c1ccc(N2C(=O)N(CC(=O)c3ccc(F)cc3)c3ccccc3S2(=O)=O)cc1,107,100
CCOc1ccc(C2C(=O)N(C3CCCCC3)CC(=O)N2CCc2ccccc2)cc1OC (stereo unspecified),102,95
Cc1nc(N2CCCC2)c2c(C(=O)Nc3cccc(Cl)c3)c(C)oc2n1,99,105
CCOC(=O)c1cc(S(=O)(=O)Nc2ccc(Br)c(C)c2)[nH]n1,100,101
Cc1ccc(CN2C(=O)SC(Nc3ccccc3)C2=O)cc1 (stereo unspecified),103,103
NC(=O)c1ccccc1NC(=O)C1CCCN(c2ncnc3onc(-c4ccc(F)cc4)c23)C1 (stereo unspecified),102,109
Cc1cccc(NC(=O)CSC2=Nc3ccccc3C3=NC(CCC(=O)NCc4ccc(F)cc4)C(=O)N23)c1 (stereo unspecified),116,115
Cc1ccc(C(=O)NCC(=O)OCc2cc(=O)n3nc(C4CCCCC4)sc3n2)cc1,105,111
COc1ccc(Cl)cc1NC(=O)CCS(=O)(=O)c1cccc2nonc12,99,99
CCOc1ccc(-c2nn(CC(=O)NC3CCCCC3)c3c2cnc2ccc(C)cc23)cc1,110,109
Cc1c(CNC2CCCCC2)c(C(=O)O)c(C)n1Cc1ccc(F)cc1,104,106
COc1cc(NC(=O)CC(C)S(=O)(=O)c2cc3c4c(c2)CCN4C(=O)CC3)cc(OC)c1 (stereo unspecified),108,107
CCc1c(C)sc2c1CCN(Cc1ccccc1F)C2c1ccccc1 (stereo unspecified),109,116
CCOC(=O)c1ccccc1NC(=O)c1c(C)oc2ncnc(N3CCOCC3)c12,101,105
Cc1ccc(-c2cc(N)n3nc(-c4ccc(C)cc4)cc3n2)cc1,102,108
COc1ccccc1Cn1cc(C(=O)c2ccc(C)cc2)c(=O)c2cc(F)cc(F)c21,109,114
CCN1CCN(C(c2ccc(SC)cc2)c2c(O)cc(C)n(CCOC)c2=O)CC1 (stereo unspecified),113,103
Cc1cc(C)cc(NC(=O)CSc2oc(-c3ccccc3)nc2S(=O)(=O)c2ccc(Cl)cc2)c1,99,101
Cc1c(C(=O)N2CCC(C)CC2)c(S(=O)(=O)N2CCN(c3ccc(Cl)cc3)CC2)c(C)n1C,107,108
CCn1c(CNC(=O)c2ccc(OC)cc2)nnc1SCC(=O)Nc1cc(C)ccc1C,100,96
COc1cc(CNCCSc2nnnn2C)ccc1OCc1ccc(F)cc1,100,103
O=C1c2[nH]nc(-c3ccccc3O)c2C(c2cccc(OCc3ccccc3)c2)N1CCCO (stereo unspecified),111,113
COc1cccc(NC(=O)C(=O)NCCc2csc(-c3ccc(C(F)(F)F)cc3)n2)c1,112,118
CC1=C(C(=O)N2CCCCC2)C(c2ccc(Cl)cc2)n2c(nc3ccccc32)N1 (stereo unspecified),108,112
O=C(NCCCN1CCOCC1)c1ccc2c(c1)N(Cc1ccccc1)C(=O)c1ccccc1S2,108,111
COC(=O)Cn1c(=O)c2c(nc3n2CCN3c2cccc(C)c2)n(C)c1=O,110,111
CCOC(=O)CSc1nc2c(sc3ccccc32)c(=O)n1Cc1ccc(OC)cc1,99,105
COc1ccc(C(=O)N2CC(=O)Nc3ccc(C)cc3C2c2ccccc2)cc1OC (stereo unspecified),108,106
COc1ccccc1C(=O)NCCn1cc(SCC(=O)Nc2ccccc2F)c2ccccc21,105,106
CCCCNC(=O)CSc1nc2n[nH]c(C)c2c(=N)n1-c1ccccc1CC,99,93
CCC(=O)N1c2ccccc2CC1C(=O)NCCc1ccccc1Cl (stereo unspecified),105,104
Cc1ccc(Oc2coc3cc(OCC(=O)NC4CCCCC4)ccc3c2=O)cc1,102,104
Cc1c(C(=O)Nc2ccccc2F)sc2ncnc(N(C)C3CCCCC3)c12,107,113
CCOC(=O)c1c(C)[nH]c(C)c1S(=O)(=O)N(C)CC(=O)NCc1ccc(C)cc1,103,112
CCCS(=O)(=O)Nc1cc(-c2cn3ccc(C)cc3n2)ccc1C,112,105
COc1ccc(S(=O)(=O)N(C(=O)c2ccncc2)c2ccc3oc(C)c(C(C)=O)c3c2)cc1,97,95
COc1cccc(-c2nc(SCC(=O)NC3CCCC3)c(-c3ccccc3)[nH]2)c1,110,116
CCOc1cccc(C2c3c(oc4ccc(F)cc4c3=O)C(=O)N2c2cc(C)ccn2)c1 (stereo unspecified),109,103
CCOC(=O)c1ccc(N2C(=O)c3n[nH]c(-c4ccco4)c3C2c2ccc(OC)cc2OC)cc1 (stereo unspecified),108,109
CCN(C(=O)c1cc(S(=O)(=O)N2CCCC2)cn1C)c1ccc(OC)cc1,105,104
COc1ccc(NC(=O)c2ccco2)cc1NC(=O)COc1cc(C)cc(C)c1,105,106
CCCN(CCC)C(=O)Cn1c(=O)n(-c2ccc(Cl)c(Cl)c2)c(=O)c2c(C)c(C(=O)N(C)C)sc21,99,104
COc1cccc(C(=O)Nc2cccc(NC(=O)c3ccc(Cl)cc3Cl)c2)c1,105,116
COc1ccc(NC(=O)c2sc3nc(C)c(C(=O)Nc4ccc(C)cc4C)c(-c4sccc4C)c3c2N)cc1,102,105
Cc1cc2c(cc3c(SCc4nc(-c5ccccc5)oc4C)nnc(C)n32)o1,107,98
CCOC(=O)c1cccc(NC(=O)C2CCN(S(=O)(=O)c3c(C)noc3/C=C/c3ccc(C)cc3)CC2)c1,107,107
O=C(C1CCC(Cn2c(=O)c3sccc3n(Cc3ccccc3F)c2=O)CC1)N1CCCCC1 (stereo unspecified),106,93
Cc1ccc2oc(=O)c3cnn(CC(=O)N(C)c4ccc(F)cc4)c3c2c1,106,109
Cc1ccc(-n2ncc3c(=O)n(Cc4cccc(C(F)(F)F)c4)cnc32)cc1C,105,107
CCOc1ccc(C(c2c(O)cc(C)n(CCOC)c2=O)N2CCN(c3ccccc3F)CC2)cc1 (stereo unspecified),110,115

# 22 successive entries out of the list so far, for reference:
SMILES,Polio RdRp inh,Polio RdRp inh intensity
COC(=O)Cn1c(=O)c2c(nc3n2CCN3c2cccc(C)c2)n(C)c1=O,110,111
CCOC(=O)CSc1nc2c(sc3ccccc32)c(=O)n1Cc1ccc(OC)cc1,99,105
COc1ccc(C(=O)N2CC(=O)Nc3ccc(C)cc3C2c2ccccc2)cc1OC (stereo unspecified),108,106
COc1ccccc1C(=O)NCCn1cc(SCC(=O)Nc2ccccc2F)c2ccccc21,105,106
CCCCNC(=O)CSc1nc2n[nH]c(C)c2c(=N)n1-c1ccccc1CC,99,93
CCC(=O)N1c2ccccc2CC1C(=O)NCCc1ccccc1Cl (stereo unspecified),105,104
Cc1ccc(Oc2coc3cc(OCC(=O)NC4CCCCC4)ccc3c2=O)cc1,102,104
Cc1c(C(=O)Nc2ccccc2F)sc2ncnc(N(C)C3CCCCC3)c12,107,113
CCOC(=O)c1c(C)[nH]c(C)c1S(=O)(=O)N(C)CC(=O)NCc1ccc(C)cc1,103,112
CCCS(=O)(=O)Nc1cc(-c2cn3ccc(C)cc3n2)ccc1C,112,105
COc1ccc(S(=O)(=O)N(C(=O)c2ccncc2)c2ccc3oc(C)c(C(C)=O)c3c2)cc1,97,95
COc1cccc(-c2nc(SCC(=O)NC3CCCC3)c(-c3ccccc3)[nH]2)c1,110,116
CCOc1cccc(C2c3c(oc4ccc(F)cc4c3=O)C(=O)N2c2cc(C)ccn2)c1 (stereo unspecified),109,103
CCOC(=O)c1ccc(N2C(=O)c3n[nH]c(-c4ccco4)c3C2c2ccc(OC)cc2OC)cc1 (stereo unspecified),108,109
CCN(C(=O)c1cc(S(=O)(=O)N2CCCC2)cn1C)c1ccc(OC)cc1,105,104
COc1ccc(NC(=O)c2ccco2)cc1NC(=O)COc1cc(C)cc(C)c1,105,106
CCCN(CCC)C(=O)Cn1c(=O)n(-c2ccc(Cl)c(Cl)c2)c(=O)c2c(C)c(C(=O)N(C)C)sc21,99,104
COc1cccc(C(=O)Nc2cccc(NC(=O)c3ccc(Cl)cc3Cl)c2)c1,105,116
COc1ccc(NC(=O)c2sc3nc(C)c(C(=O)Nc4ccc(C)cc4C)c(-c4sccc4C)c3c2N)cc1,102,105
Cc1cc2c(cc3c(SCc4nc(-c5ccccc5)oc4C)nnc(C)n32)o1,107,98
CCOC(=O)c1cccc(NC(=O)C2CCN(S(=O)(=O)c3c(C)noc3/C=C/c3ccc(C)cc3)CC2)c1,107,107
O=C(C1CCC(Cn2c(=O)c3sccc3n(Cc3ccccc3F)c2=O)CC1)N1CCCCC1 (stereo unspecified),106,93

# Next structures follow.
SMILES,Polio RdRp inh,Polio RdRp inh intensity
Cc1cccc(Cn2c(COc3ccc(Cl)cc3)nc3ccccc32)c1,105,105
O=C(Cn1c(-c2cccs2)cc2cc(F)ccc21)NCCCN1CCN(c2ccc(F)cc2)CC1,109,115
Cc1ccc(NC(=O)C(=O)NCC(c2cccnc2)N2CCN(Cc3ccccc3)CC2)cc1C (stereo unspecified),103,106
COc1ccc(N(CC(=O)N2CCN(c3ccc(F)cc3)CC2)S(=O)(=O)c2c(C)n[nH]c2C)cc1,105,107
Cc1ccccc1-c1noc(-c2cccnc2N(C)Cc2ccc(Cl)cc2)n1,104,107
Cc1ccc(C)c(NC(=O)CCc2c(C)n(C)c3cc(-c4ccccc4C)nn3c2=O)c1,102,109
CC(C)c1nnc(NC(=O)c2nc(S(=O)(=O)Cc3ccccc3)ncc2Cl)s1,102,105
Cc1ccc(-c2nnn(CC(=O)N(CC(=O)NCCC(C)C)c3ccc(F)cc3)n2)cc1,105,99
COc1ccc(Cl)cc1NC(=O)Cn1c(=O)n(-c2ccc(C)cc2)c(=O)c2ccc(C(=O)NCc3ccccc3Cl)cc21,100,101
Cc1cc(C)c2c(CC(=O)N(Cc3ccc(Cl)cc3)Cc3ccco3)coc2c1,108,108
CC(C)c1ccc2occ(CC(=O)Nc3ccccc3Cl)c2c1,118,119
CCS(=O)(=O)Nc1ccc(-c2cn3c(C)csc3n2)cc1,108,103
CCCc1oc2ccc(NS(=O)(=O)c3ccc(OCC)cc3)cc2c1C(=O)OCC,106,107
O=C(c1cn(-c2ccccc2)nc1-c1cccnc1)N1CCOCC1,103,99
CCCCN(C)CCCNC(=O)Cn1ncc2c3ccccc3n(Cc3cc(C)ccc3C)c2c1=O,107,104
COc1ccccc1NC(=O)c1c(NC(=O)c2ccco2)sc2c1CCC(C(C)(C)C)C2 (stereo unspecified),104,106
COc1ccccc1NC(=O)C(=O)NCC(c1ccc2c(c1)OCO2)N1CCOCC1 (stereo unspecified),112,112
CCCCCn1c(=O)[nH]c2cc(C(=O)NCCN(C)CCCC)ccc2c1=O,108,110
Cc1ccc(Cl)cc1N1CCN(C(=O)c2cn(C)c3ccc(S(=O)(=O)N4CCCC4)cc3c2=O)CC1,102,100
Cc1ccc(N2CCN(S(=O)(=O)c3cc(Br)cc4c3N(C(=O)C3CC3)CC4)CC2C)cc1 (stereo unspecified),105,109

# Compound profiles, from the list above. Order of screens: Polio RdRp inh | Polio RdRp inh intensity
# Results for Cc1ccc(CN2C(=O)SC(Nc3ccccc3)C2=O)cc1 (stereo unspecified) → 103 | 103
# Results for Cc1cccc(NC(=O)CSC2=Nc3ccccc3C3=NC(CCC(=O)NCc4ccc(F)cc4)C(=O)N23)c1 (stereo unspecified) → 116 | 115

# (list continues)
SMILES,Polio RdRp inh,Polio RdRp inh intensity
Cc1ccc(/C=C/c2nc3ccccc3n2S(=O)(=O)c2ccc(Br)cc2)cc1,107,102
CN(C)S(=O)(=O)N(CC(=O)NCCSCc1cccc(Cl)c1)c1ccccc1,107,108
CC(C)C(=O)Nc1ccc2nc(SCC(=O)N3CCc4ccccc43)sc2c1,83*,78*
CCN1CCN(Cc2c(O)ccc3c(=O)c(Oc4ccccc4Cl)c(C(F)(F)F)oc23)CC1,105,109
Cc1ccc(S(=O)(=O)c2cn(CC(=O)Nc3ccc4c(c3)OCO4)c3ccccc3c2=O)cc1C,104,96
Cc1ccc(C)c(Cn2c(=O)cc(C)c3c(C)nn(-c4cccc(F)c4)c32)c1,97,104
COc1ccccc1-n1c(=O)c2c3c(sc2n(Cc2ccccc2F)c1=O)CN(C(C)=O)CC3,114,107
COc1ccc(Nc2c3c(nc4ccc(NC(=O)/C=C/c5cc(OC)c(OC)c(OC)c5)cc24)CCCC3)cc1OC,102,102
COc1cc(OC)cc(-c2nc3n(n2)C(c2ccccc2)C(C(N)=O)=C(C)N3)c1 (stereo unspecified),106,107
O=C(Nc1cccc(C(F)(F)F)c1)C1CCCN(S(=O)(=O)c2cccc3nonc23)C1 (stereo unspecified),102,107
CCOC(=O)c1c(S(=O)(=O)N2CCCC(C(=O)NCc3ccccc3OC)C2)c(C)n(C)c1C (stereo unspecified),110,108
O=C(NCC(c1cccnc1)N1CCc2ccccc2C1)C(=O)Nc1ccc(F)cc1F (stereo unspecified),103,96
Cc1ccc(NC(=O)CN2CCCN(Cc3cc(C)ccc3C)S2(=O)=O)c(Cl)c1,100,104
CCC(C)NC(=O)C1CCC(CNS(=O)(=O)c2cccc3nsnc23)CC1 (stereo unspecified),106,107
COCCNC(=O)c1nn(-c2ccc(Cl)cc2)nc1CO,104,102
COc1ccc(C2NC(=O)N(C)C3=C2C(=O)N(c2ccc(Br)cc2)C3)cc1 (stereo unspecified),101,92
CCc1nnc2c3ccccc3nc(N3CCN(c4cc(C)ccc4C)CC3)n12,114,110
Cc1ccn2c(Nc3c(C)cccc3C)c(-c3ccc(Cl)s3)nc2c1,112,127
CN1CCN(Cc2c(O)ccc3cc(-c4ccc(Cl)cc4)c(=O)oc23)CC1,114,132
